# Source: PubChem (National Center for Advancing Translational Sciences (NCATS))
# TRPML1 inh: qHTS for Inhibitors of the Human Mucolipin Transient Receptor Potential 1 (TRPML1); activity change, negative = inhibition, % (concentration not given with the values); AID 624415, 2012; TRPML1-inducible cells, Ca2+ dye fluorescence, FDSS; stronger effect = lower value; inhibition of EC80 agonist-evoked calcium signal; 0.02% of 390,000 active; in the data active means activity change below about -50%; inconclusive means about -30% to -50%; inactive means above about -30%;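 further: stimulus is agonist 54-4 at its EC80 concentration; on the % scale 0 is the no-effect control and ±100 the full control effect; compound concentration not given in the record; the text of the record puts the active cut at -80%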
# Target sequence (Q9GZU1 whole entry, looked up): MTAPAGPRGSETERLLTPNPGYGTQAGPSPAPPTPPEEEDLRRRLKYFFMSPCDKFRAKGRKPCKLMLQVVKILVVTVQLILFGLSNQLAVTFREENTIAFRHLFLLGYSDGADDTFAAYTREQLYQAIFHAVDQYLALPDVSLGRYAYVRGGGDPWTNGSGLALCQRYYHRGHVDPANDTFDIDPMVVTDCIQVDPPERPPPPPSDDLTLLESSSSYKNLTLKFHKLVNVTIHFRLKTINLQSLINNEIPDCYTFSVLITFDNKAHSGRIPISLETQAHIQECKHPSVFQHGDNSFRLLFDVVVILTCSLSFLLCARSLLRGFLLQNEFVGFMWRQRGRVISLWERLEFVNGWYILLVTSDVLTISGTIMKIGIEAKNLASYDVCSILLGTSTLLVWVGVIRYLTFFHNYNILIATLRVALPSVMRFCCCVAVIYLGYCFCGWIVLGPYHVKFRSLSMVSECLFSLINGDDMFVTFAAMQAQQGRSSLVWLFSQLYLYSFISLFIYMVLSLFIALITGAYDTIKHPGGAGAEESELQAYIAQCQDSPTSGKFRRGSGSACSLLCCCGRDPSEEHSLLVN
#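 Calcium fluorescence in TRPML1-DL cells induced overnight with Tet: a 110 s read after compound pin addition, then a 110 s antagonist read after challenge with 54-4 at 4 uM final (EC80).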
# D2 agonist: Beta-Arrestin HTS for Positive Allosteric Modulators of the Human D2 Dopamine Receptor: Agonists; D(2) dopamine receptor (Homo sapiens), P14416; DiscoveRx PathHunter D2 beta-arrestin, luminescence, 90 min; 100% = 57 uM dopamine signal; activation, % (test concentration not listed); 0.084% of 360,000 active; AID 624465, 2012; in the data active = activation above about 40%; inconclusive = about 15% to 40%; inactive = below about 15%; further: compound concentration not given in the record; the text of the record calls up to 30% inactive
# Target sequence (P14416 whole entry, looked up): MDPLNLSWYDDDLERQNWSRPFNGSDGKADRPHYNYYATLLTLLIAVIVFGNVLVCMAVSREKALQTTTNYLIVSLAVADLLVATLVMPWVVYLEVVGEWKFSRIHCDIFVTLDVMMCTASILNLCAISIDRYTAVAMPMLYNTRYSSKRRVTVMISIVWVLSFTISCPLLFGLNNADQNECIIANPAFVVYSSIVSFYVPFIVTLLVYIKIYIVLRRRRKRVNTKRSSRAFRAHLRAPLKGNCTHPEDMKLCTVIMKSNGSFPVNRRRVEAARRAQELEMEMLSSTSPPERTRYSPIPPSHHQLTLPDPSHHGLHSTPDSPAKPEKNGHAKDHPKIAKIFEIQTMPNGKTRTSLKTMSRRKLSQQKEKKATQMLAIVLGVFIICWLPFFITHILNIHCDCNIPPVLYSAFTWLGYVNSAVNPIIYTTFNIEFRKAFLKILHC
#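 DiscoveRx PathHunter D2 beta-arrestin cells (2,100/well) attached overnight, then compound-stimulated 90 min at 37 C in HBSS/10 mM HEPES/0.1% Tween-20 buffer; beta-galactosidase complementation read by luminescence after 1 h at ambient temperature. Dopamine 57 uM final (EC100) as control.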
# Six1-Eya2 blk: qHTS Assay for Inhibitors of the Six1/Eya2 Interaction. activity change, % (no concentration beside the values). 0.56% of 360,000 active. Homeobox protein SIX1 (Homo sapiens) + Protein phosphatase EYA2 (Homo sapiens), …. AID 651725, 2012. AlphaScreen GST-Six1/His-Eya2 binding, biochemical; stronger effect = lower value; control for the full effect not named in the record; in the data active = activity change below about -65%; inconclusive = about -30% to -65%; inactive = above about -30%; further: on the % scale 0 is the no-effect control and ±100 the full control effect; compound concentration not given in the record
#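 GST-Six1 + His-Eya2 (5X stock: 250/500 nM); Tris pH 8.0, 300 mM NaCl, 0.05% BSA, 0.02% Tween 20; GSH donor/Ni acceptor beads; 1 h 37 °C dark; AlphaScreen readout.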
# TRPML1 agonist: qHTS for Agonists of the Human Mucolipin Transient Receptor Potential 1 (TRPML1) | 0.12% of 410,000 active | Mucolipin-1 (Homo sapiens), Q9GZU1 | activation, % (no concentration beside the values) | TRPML1-expressing cells, Ca2+ dye fluorescence, FDSS; host cell line not named in the record; reference of the full effect not given here; in the data active = activation above about 50%; inconclusive = about 30% to 50%; inactive = below about 30%; further: 0% is about no effect; the text of the record puts the active cut at 80%
#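 Cells: TRPML1-DL, 1X Tet inducer, ~16 h at 37 degrees C/5% CO2. Dye: ABD Ca8 no-wash + quencher, 45-90 min RT. Read: 10 s baseline, compound add, 110 s agonist phase; 54-4 EC80 (4uM final), 110 s antagonist phase.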
# CtBP-E1A blk: qHTS Assay for Inhibitors of the CtBP/E1A Interaction | AID 651724, 2012 | CtBP / adenovirus E1A interaction (AlphaScreen) | 0.49% of 340,000 active | AlphaScreen GST-E1A/His-CtBP binding, 1536-well; stronger effect = lower value; control for the full effect not named in the record | activity change, % (test concentration not listed); in the data active means activity change below about -65%; inconclusive means about -30% to -65%; inactive means above about -30%; further: on the % scale 0 is the no-effect control and ±100 the full control effect; compound concentration not given in the record
#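 In 5 uL wells, 23 nL compound meets equimolar GST-E1A and His-CtBP (5X stock 125 nM each) for 2 h, 37 °C. Beads (5X, 50 ug/mL) then 1 h, 37 °C, dark.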
# PINK1 modulator: A Quantitative High throughput Screen to Identify Chemical Modulators of PINK1 Expression; 0.2% of 410,000 active; PINK1 immunofluorescence, high-content cytometry, 24 h; Potency, µM (series often up to 76.6 µM), for inactives: top-dose activation (PINK1 increase), actives largely listed as activators; active = well fitted activation curve with a large enough effect; inconclusive = small, poorly fitted or top-dose-only effect; inactive = flat fitted curve, though single readings scatter; cell line not stated here;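 further: potency means the concentration at half of the fitted maximal effect; % of control where 0% means no effect; nearly all actives have a fitted effect of over 65% in size; a mitochondrial uncoupler was the plate control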
#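 Compound titrations (5 concentrations, 24 h) on a stable cell line; DMSO and CCCP controls. Endpoint: fixed-cell PINK1 immunofluorescence with mitochondrial, cell and nuclear markers, scanned by microplate cytometer.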
# An asterisk follows results filed as active; u = inconclusive; x = not tested or not shown; [ ] = remark or other dose.
SMILES,TRPML1 inh,D2 agonist,Six1-Eya2 blk,TRPML1 agonist,CtBP-E1A blk,PINK1 modulator
CC(C)(C)OC(=O)N1CC=C2C(C#N)=C(N)C(C#N)(C#N)[C@H](c3cccnc3)[C@H]2C1,-2,-8.6,-10,0.5,-2,3.9%
CCOc1ccc(S(=O)(=O)N2CCN(Cc3ccc4c(c3)OCO4)CC2)cc1OCC,5,8.8,-9,3.2,-10,0.6%
Cc1cccc(-c2nc3ccc(C(=O)NCCN4CCN(C)CC4)cc3nc2-c2cccc(C)c2)c1,22,-2.8,-19,4.1,x,-2.0%
C=CCn1cnc2c(oc3ccccc32)c1=O,4,-2.5,-17,-0.4,-17,-0.6%
COc1cc(/C=N\NC(C)=O)ccc1OC/C=C/c1ccccc1,-2,0.7,0,-0.3,1,3.3%
COc1cc(Cl)c(C)cc1NC(=O)CSc1cc(=O)n(C)c2cc(Cl)ccc12,-7,x,x,-0.1,x,3.9%
CC1CCc2c(sc3nc(SCC(=O)O)n(-c4ccccc4)c(=O)c23)C1 (centres undefined),x,-1.7,-1,x,1,0.6%
Cc1nnc(SCC(=O)c2ccc([N+](=O)[O-])cc2)s1,15,4.7,-1,0.3,-4,1.8%
CCN(CC)c1ccc(NC(=O)c2ccccc2Br)cc1S(=O)(=O)Nc1ccccc1OC,2,-6.9,9,1.0,1,0.8%
COc1cc2c(cc1OC)C(c1cccc([N+](=O)[O-])c1)=NCC2,-1,-0.8,0,0.4,0,-1.7%
Nc1ccc(N=Nc2ccccc2)c(N)n1,-12,-8.1,-29,-1.0,u,-0.9%
CC(=O)N1CCC(=NNc2ncc(C(F)(F)F)cc2Cl)CC1,-16,-3.3,-17,-0.1,-9,0.8%
CSC1=C(C#N)C(=O)NC(c2ccccc2O)S1 (centres undefined),6,-3.8,-19,-0.1,-1,1.3%
O=C(Nc1ccc2nc(SCC(=O)N3CCOCC3)sc2c1)c1cccc(Br)c1,-12,x,x,2.2,x,-0.9%
COc1ccc(C2(c3ccc(OC)cc3)NC(=O)N(CC(=O)NCC(C)c3ccccc3)C2=O)cc1 (centres undefined),-6,-1.9,-4,8.7,-6,0.7%
Nc1ccccc1SSc1ccccc1N,-7,-18,-19,1.1,x,-0.3%
Cc1ccn2c(NC(=O)c3cccc(Cl)c3)c(-c3ccccc3)nc2c1,-4,x,x,1.1,x,-0.9%
O=C(Nc1cccc(F)c1)c1cccnc1,x,1.6,0,x,x,2.1%
CCc1cccc2c3c([nH]c12)C(CC)(CC(=O)O)OCC3 (centres undefined),-4,-1.4,0,0.3,-5,0.4%
COc1cc(/C=N/O)ccc1OCc1ccc([N+](=O)[O-])cc1,31,1.6,-20,0.7,-17,-0.5%
COc1ccc(C(=O)Nc2ccc(S(=O)(=O)N(C)c3ccccc3)cc2)cc1,-11,-5.7,-9,0.7,-2,0.6%
CN(CCc1ccccc1)C(=O)c1ccc(NC(=O)Cc2cccc(NC(=O)C3CCN(C(=O)C4CCCCC4)CC3)c2)cc1,28,-2.1,-2,2.9,0,0.0%
CC(C)Oc1ccc2nnnn2n1,-5,-1.1,-2,-0.5,-3,-0.5%
N/C(=N\OC(=O)Nc1ccc(Cl)c(Cl)c1)c1ncc(C(F)(F)F)cc1Cl,11,0.3,-4,-1.6,0,0.8%
c1cn2cc(-c3ccc(CN4CCOCC4)cc3)ccc2n1,x,-3.2,-2,-0.4,-8,-1.0%
Cc1noc(C)c1COc1ccc(C(=O)N2CCCC(C(N)=O)C2)cc1 (centres undefined),0,-4.4,-2,0.4,2,-0.3%
CC1(C)CNc2cc(N)ccc2S1,-11,9.8,-18,0.3,-11,0.4%
Cc1ccccc1-n1nnnc1SCC(N)=O,-2,4.3,9,0.8,-2,0.0%
COc1ccc(-c2cc(NC(C)=O)c3ncc(-c4ccc(OC)c(OC)c4)n3c2)c(OC)c1,x,11,u,-1.2,-19,12%
CCOC(=O)c1c(NC(=O)COc2cccc(C(F)(F)F)c2)sc2c1CCC(C)C2 (centres undefined),2,x,x,-0.5,x,0.5%
O=C(CN1C(=O)NC2(CCCC2)C1=O)N1CCN(S(=O)(=O)c2ccccc2F)CC1,-14,4.3,-6,0.9,-4,-0.3%
COc1ccccc1NC(=O)c1cc2c([nH]c1=O)CC(C)(C)CC2=O,4,x,x,0.0,x,-0.8%
CCOC(=O)C1=C(C)N(CC)C(=S)NC1c1ccc(Cl)cc1 (centres undefined),6,-2.9,-22,4.9,-6,1.7%
CCOC(=O)/C(CCC[N+](C)(CC)CC)=N\O,3,-1.7,8,0.6,1,0.5%
CC(C)NS(=O)(=O)c1ccc(NC(=O)NC2CCCCC2)cc1,-7,-3.6,9,1.8,0,-0.3%
Cc1cc(CNC(=O)CC2C(=O)NCCN2Cc2ccc(-c3ccccc3)cc2)nn1C (centres undefined),-6,-3.4,0,-0.6,-3,1.4%
Cn1c(NCCN2CCCC2)nc2cc(-c3cccc(C(F)(F)F)c3)sc2c1=O,x,9.7,3,-0.2,1,-0.6%
O=C(CN1C(=O)NC2(CCCC2)C1=O)N1CCN(C(=O)c2ccco2)CC1,-8,2.2,3,0.2,6,3.3%[38.3 µM]
N#CC(c1ccccc1O)N1N=C(c2ccccc2)CC1c1ccccc1 (centres undefined),-13,-5.7,12,0.5,-8,u
COc1ccc(-c2noc(CN(C(=O)C(C)Oc3ccc(C)cc3)C(C)C)n2)cc1 (centres undefined),35,x,x,4.0,x,3.3%
CN1CCN(CCNC(=O)c2ccc(CS(=O)c3ccc(Br)cc3)o2)CC1 (centres undefined),-7,-0.8,4,0.4,8,0.1%
O=C(NCC(O)CO)c1ccc2[nH]c3ccccc3c2c1 (centres undefined),0,1.0,-8,4.5,-8,-1.6%
Nc1ccc(S(=O)(=O)N2CCCC2)cc1Cl,57,-2.9,2,-0.2,-5,0.0%
COc1ccc2cc(-c3nc(Cl)c4c5c(sc4n3)CC(C)CC5)c(=O)oc2c1 (centres undefined),-8,x,x,-0.5,x,16µM*
Cc1cccc(NC(=S)NC(=O)c2ccco2)c1C,5,-3.5,-3,0.4,-1,2.1%
COC(=O)CSc1nc(-c2ccccc2)nc2ccccc12,23,-0.1,2,1.4,14,-0.3%
Cn1c(C(=O)N(Cc2ccccc2)Cc2ccccn2)cc2sccc21,-3,-3.2,-8,1.5,6,20%[38.3 µM]
COc1ccc(CN(C)CC(=O)N2CCc3ccccc3C2)cc1,22,-1.9,3,-0.7,1,-2.5%
O=C(O)CCN1C(=O)c2ccc(NC(=O)CCc3ccccc3)cc2C1=O,-3,1.7,-8,-0.5,x,-0.6%
Nc1ncnc(Nc2cc(Cl)cc(Cl)c2)c1[N+](=O)[O-],-3,0.4,6,0.8,-1,7.9%
CCS(=O)(=O)c1nc2ccccc2n1CC(=O)N1CCOCC1,-24,0.9,-2,1.0,0,7.1%
S=c1[nH]nc(C2CCCCC2)n1/N=C/c1cccc(Br)c1,-8,1.1,1,-1.0,1,5.1%
COC(=O)c1ccc(NC(=O)C(=O)NCCc2sc(-c3cccc(F)c3)nc2C)cc1,-4,x,x,-0.2,x,1.8%
C[C@]12c3[nH]c4ccc(Cl)cc4c3CCN1C(=O)[C@@H](CC(=O)NCc1ccco1)C[C@@H]2C(=O)N1CCOCC1,-1,-1.3,-7,2.4,-3,0.4%
O=C(Nc1ccc(S(=O)(=O)Nc2ncccn2)cc1)C1=COCCO1,10,0.5,-8,-0.1,8,2.0%
O=C(NC1CCS(=O)(=O)C1)c1ccc(S(=O)(=O)N2CCCC2)cc1 (centres undefined),5,-2.6,3,0.7,-19,u
COc1ccc(NC(=O)CNC(=O)Cn2ccc3ccccc3c2=O)cc1OC,7,x,x,-0.3,x,1.2%
CSCCC(NC(=O)c1ccccc1Cl)C(=O)NNC(=O)c1csc(N2CCOCC2)n1 (centres undefined),6,-5.8,-5,0.0,3,-1.5%
Cc1noc(C)c1COc1ccc(C(=O)NNC(=O)c2ccccc2)cc1,-12,-3.7,5,-1.0,1,7.3%
CC(C)COc1ccc(C(=O)N2C(=O)c3ccc(N)cc3C2=O)cc1,-16,-0.5,9,-0.8,0,-2.3%

# In a second layout: entries from further up
SMILES	TRPML1 inh	D2 agonist	Six1-Eya2 blk	TRPML1 agonist	CtBP-E1A blk	PINK1 modulator
O=C(O)CCN1C(=O)c2ccc(NC(=O)CCc3ccccc3)cc2C1=O	-3	1.7	-8	-0.5	x	-0.6%
Nc1ncnc(Nc2cc(Cl)cc(Cl)c2)c1[N+](=O)[O-]	-3	0.4	6	0.8	-1	7.9%
CCS(=O)(=O)c1nc2ccccc2n1CC(=O)N1CCOCC1	-24	0.9	-2	1.0	0	7.1%
S=c1[nH]nc(C2CCCCC2)n1/N=C/c1cccc(Br)c1	-8	1.1	1	-1.0	1	5.1%
COC(=O)c1ccc(NC(=O)C(=O)NCCc2sc(-c3cccc(F)c3)nc2C)cc1	-4	x	x	-0.2	x	1.8%
C[C@]12c3[nH]c4ccc(Cl)cc4c3CCN1C(=O)[C@@H](CC(=O)NCc1ccco1)C[C@@H]2C(=O)N1CCOCC1	-1	-1.3	-7	2.4	-3	0.4%
O=C(Nc1ccc(S(=O)(=O)Nc2ncccn2)cc1)C1=COCCO1	10	0.5	-8	-0.1	8	2.0%

# (further entries)
SMILES,TRPML1 inh,D2 agonist,Six1-Eya2 blk,TRPML1 agonist,CtBP-E1A blk,PINK1 modulator
Cc1ccc(NC(=O)CSC2=Nc3ccccc3C3CC=NN23)c(C)c1 (centres undefined),-1,-2.3,6,-0.4,7,6.6%
Cc1cc(C)n(-c2cc(N3CCOCC3)nc(-c3ccccc3)n2)n1,0,-0.8,0,1.0,-1,11%[38.3 µM]
COc1cc(/C=N/NC(=O)c2ccncc2)ccc1OCC(=O)Nc1ccc(C)c(C)c1,6,-1.3,-14,-0.2,-12,1.2%
CCN(Cc1ccccc1)S(=O)(=O)c1ccc(C(=O)N(CCCN(C)C)c2nc3c(C)c(C)ccc3s2)cc1,16,3.3,-18,1.4,u,-1.6%
CC(C)NC(=O)C(=O)NCCC1CCCCN1S(=O)(=O)c1cccs1 (centres undefined),-13,-4.6,2,0.4,1,1.9%
COc1ccc(-c2cc3nc4c(c(=O)n3[nH]2)CCC4)cc1,36,-0.2,-25,1.1,-13,7.7%
O=C(c1ccc(S(=O)(=O)N2CCC(c3nc4ccccc4[nH]3)CC2)cc1)N1CCOCC1,-5,-2.5,1,0.3,-8,4.1%[38.3 µM]
Cc1nn(-c2ccccc2)c(C)c1NC(=O)COC(=O)CC(C)c1ccccc1 (centres undefined),1,-2.5,-1,0.3,-2,-0.5%
